# Polio RdRp inh: poliovirus RNA polymerase inhibition. % elongation, % (compound at 16.7 µg/mL). AID 588519. poliovirus polymerase elongation, fluorescence polarization; active compounds read low. P03300. 0.66% of 150,000 active; in the data active means % elongation below about 90%; further: some results filed as inactive read as strong as hits
# Target sequence (P03300 1749-2209 limits assumed): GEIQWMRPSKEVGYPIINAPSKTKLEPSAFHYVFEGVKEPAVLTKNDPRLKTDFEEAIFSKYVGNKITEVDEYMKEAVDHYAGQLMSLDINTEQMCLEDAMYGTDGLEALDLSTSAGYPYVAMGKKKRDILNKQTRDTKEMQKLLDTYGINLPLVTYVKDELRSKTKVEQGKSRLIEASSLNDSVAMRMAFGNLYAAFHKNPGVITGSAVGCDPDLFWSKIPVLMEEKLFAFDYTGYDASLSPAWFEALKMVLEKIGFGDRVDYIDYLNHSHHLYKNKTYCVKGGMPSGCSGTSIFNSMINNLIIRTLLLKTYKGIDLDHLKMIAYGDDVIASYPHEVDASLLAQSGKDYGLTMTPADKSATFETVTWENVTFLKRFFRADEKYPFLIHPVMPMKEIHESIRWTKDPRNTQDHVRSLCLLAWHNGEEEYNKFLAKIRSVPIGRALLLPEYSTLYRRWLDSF
# Mtb MbtI inh: inhibitors of Mycobacterium tuberculosis siderophore enzyme MbtI. P9WFX0. purified MbtI enzyme, fluorescence intensity read-out. inhibition, %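 (about 17 µg/mL by stock and volumes)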. 0.89% of 100,000 active. AID 493033;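 active means above 50% in both replicates, above 80% if mildly self-fluorescent; inactive means the rest, strongly fluorescent compounds included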;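 further: 0% = mean of negative and 100% = mean of positive controls; one replicate is shown; some compounds called inactive have numbers as strong as hits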
# MenB inh: Mtb MenB enzyme inhibition; 0.43% of 100,000 active; P9WNP5; MenB enzyme assay, absorbance read-out; some hits fall short of the stated cut; inhibition, %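 (about 12 µg/mL by stock and volumes)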;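 active means mean of two replicates above 30%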;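 further: 0% = no compound and 100% = wells with inactive enzyme; the first replicate is given; strong numbers were not always called active; inactives centre near -10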
# Target sequence (P9WNP5 whole entry, looked up): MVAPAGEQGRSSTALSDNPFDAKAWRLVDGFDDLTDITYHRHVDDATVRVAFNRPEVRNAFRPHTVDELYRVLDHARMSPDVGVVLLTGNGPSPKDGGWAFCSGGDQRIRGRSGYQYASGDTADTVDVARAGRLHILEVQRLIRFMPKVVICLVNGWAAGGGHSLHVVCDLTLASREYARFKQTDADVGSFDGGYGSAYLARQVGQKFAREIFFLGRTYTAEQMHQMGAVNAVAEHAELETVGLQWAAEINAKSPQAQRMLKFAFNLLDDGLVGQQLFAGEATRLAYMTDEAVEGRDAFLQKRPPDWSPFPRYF
# Polio RdRp inh intensity: also measured in Polio RdRp inh; calls as there; % elongation; measured here: total intensity read-out; formula for this scale not given here;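 total fluorescence in place of polarization; lower means less elongation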
# Starred values were filed as active, the others as inactive; i = inactive; x = not tested or not shown; & = joins results of further samples. Rows were taken by chance; about 1.7% have a hit in one of these screens.
# Each structure is followed by: Polio RdRp inh	Polio RdRp inh intensity	Mtb MbtI inh	MenB inh
COc1ccc(N2CCN(C(=O)Cc3c(C(=O)O)n(C)c4ccccc34)CC2)cc1
 : 102	101	-6	6
C=CCSc1nc2c(cnn2-c2ccc(C)cc2)c(=O)[nH]1
 : 105	100	-11	-30
CCCc1cc(=O)[nH]c(SCC(=O)N2c3ccccc3Sc3ccccc32)n1
 : 102	102	x	1
O=c1[nH]nc(-c2ccccc2)o1
 : 100	99	105	-2
O=C(Cn1c(=O)cnc2ccccc21)NCC1CCCO1 (configuration not stated)
 : 106	106	12	-23
CSc1sc(C(=O)NN)cc1C#N
 : 100	102	2	1
CCn1c(SCC(=O)N2CCOCC2)nc2ccc(I)cc2c1=O
 : 99	99	11	4
S=C(NCCSCc1ccco1)NC1CCCCC1
 : 101	98	-1	-23
CCOc1ccc(Cc2c[nH]c(=O)[nH]c2=O)cc1
 : 99	110	2	4
CCc1cccc(NC(=O)C(NC(=O)C2CCCCC2)C(C)C)c1 (configuration not stated)
 : 99	103	-11	-23
CCCCOc1ccc(C(=O)CCN2CCCCC2)cc1
 : 99&102	99&100	32&12	-3&-1
Oc1ccc(C=Nc2ccccc2-c2nc3ccccc3[nH]2)c(O)c1
 : 105	102	-214	x
COc1ccc(NCc2ccccc2O)cc1
 : 100	102	33	3
N#Cc1sc2nc3ccccc3n2c1/N=C/N1CCOCC1
 : 109	101	1	13
Cc1ccnc(NC(=O)CCNS(=O)(=O)c2ccc3c(c2)c(=O)n(C)c(=O)n3C)c1
 : 100	105	-5	-9
CCS(=O)(=O)c1ccc2oc(=S)[nH]c2c1
 : 105	106	32	10
CCc1ccccc1NC(=O)Cn1c(=O)n(CC2CCCO2)c(=O)c2ccccc21 (configuration not stated)
 : 100	98	7	10
N#Cc1ccc(NC(=O)COC(=O)C23CC4CC(CC(C4)C2)C3)cc1
 : 106	111	-4	-42
O=C(/C=C/c1cccs1)Nc1nccs1
 : 103	109	1	2
Cc1ccc(N(C)C(=O)CCS(=O)(=O)c2ccc3c(c2)oc(=O)n3C)cc1
 : 100	103	9	-1
Oc1[nH]c2ccccc2c1C=Nc1ccc(Br)cc1
 : 94	115	2	-8
COc1cccc(OC)c1COC(=O)Nc1c(-c2ccccc2Cl)noc1C
 : 102	95	-3	-17
CC(C)(C)OC(=O)N1CCCC1C(=O)O (configuration not stated)
 : 99	102	-3	-23
COc1ccc(-c2nc(SC(C)C(=O)Nc3ccnn3C(C)C)n[nH]2)cc1 (configuration not stated)
 : 105	107	-8	0
O=c1cccc2n1CC1CC2CN(S(=O)(=O)c2ccccc2)C1 (configuration not stated)
 : 99	101	-11	14
CCOC(=O)C1=C(C(=O)c2ccccc2)C2(C(=O)Nc3ccccc32)C(C#N)=C(N)O1 (configuration not stated)
 : 101	101	x	4
CC(C)CN(CC(C)C)S(=O)(=O)c1cc(Cl)ccc1Cl
 : 100	103	-23	-31
Cc1oc2c(F)c(F)c(F)c(F)c2c1C(=O)O
 : 102	91	-5	-7
O=C(c1ccc(N2CCCc3ccccc32)s1)N1CCCC1
 : 100	102	127	-23
CCCN1C(=O)SC(CC(=O)Nc2cccc3ccccc23)C1=O (configuration not stated)
 : 100	103	18	-2
COC(=O)c1cc(CN2CCNC(=O)C2)oc1C
 : 105	107	-5	-4
CCCCCCCCCCC/C=C\C(C)(C)/C=C\CCCC(=O)O
 : 100&101	102&101	-22	4
COC(=O)C(Cc1c[nH]c2ccccc12)N=Cc1cc(Cl)cc(Cl)c1O (configuration not stated)
 : 109	118	x	-16
CN(C)c1ccc(C(=O)OCCOc2ccccc2F)cc1
 : 102	109	134	-35
O=c1nc(-c2ccccc2)cc(-c2ccc(Br)cc2)[nH]1
 : 100	103	i	-52
Nc1cc(=O)[nH]c(SC/C=C/c2ccccc2)n1
 : x	x	-1	4
CCOC(=O)N1CCC(NC(=O)c2c(C)nn(-c3ccccc3)c2-n2cccc2)CC1
 : 101	105	-3	5
Nc1cc(=O)[nH]c(SCC(=O)N(c2ccccc2)c2ccccc2)n1
 : 101	103	-10	17
O=C(NN1C(=O)C2C3c4ccccc4C(c4ccccc43)C2C1=O)C1CC1 (configuration not stated)
 : 99	101	5	1
O=C(Oc1ccccc1)n1c(=O)oc2ccc(Cl)cc21
 : 107	101	x	-17
CN1C(=O)C2(c3ccccc31)C(C(=O)N1CCN(c3cccc(C(F)(F)F)c3)CC1)CC1CCCN12 (configuration not stated)
 : 101	97	17	6
COc1ccccc1-c1ccc(=O)n(CC(=O)NC(C)(C)C)n1
 : 101	101	-3	0
CN(CN1C(=O)c2cc(Cl)c(Cl)cc2C1=O)C1CCCCC1
 : 99	102	3	-8
O=C(c1ccccc1)c1nn(-c2ccc(C(F)(F)F)cc2)ccc1=O
 : 103	109	0	3
Cc1ccc(N(C)S(=O)(=O)c2c(C)[nH]c(C)c2C(=O)N2CCCC2)cc1
 : 100	101	-8	-17
COc1ccc2oc(C(=O)OCC(=O)Nc3ccccc3SCC#N)c(C)c2c1
 : 65	231	30	-29
Cc1sc(NC(=O)CN2C(=O)CCC2=O)c(C(N)=O)c1C
 : 105	106	44	-20
Cc1ccc(S(=O)(=O)N2CCCC(NC(=O)NCc3ccco3)C2)cc1 (configuration not stated)
 : 103	102	-8	-22
Cn1cnnc1Sc1ccc(Cl)cc1NC(=O)CN1C(=O)C2CC=CCC2C1=O (configuration not stated)
 : 101	96	17	-5
COc1ccccc1N1CCN(CCCNC(=O)CCc2c(C)nc3c(c2C)c(=O)n(C)c(=O)n3C)CC1
 : 100	105	6	-5
CCOC(=O)c1c(N)sc2c(OC)c(Br)ccc12
 : 102	102	1	-10
CC(CNC(=S)Nc1cccc(Cl)c1)CSc1ccc(Cl)cc1 (configuration not stated)
 : 103	107	-11	-50
CCN(C(=O)c1cccnc1SCc1c(C)noc1C)c1nc2c(C)cccc2s1
 : 108	125	-6	-33
CC(NC(=O)Cn1cc(C(=O)C2CCCCC2)c2ccccc21)c1ccccc1 (configuration not stated)
 : 104	104	-13	-26
Cn1c(=O)c(C(=O)CSc2nncn2-c2ccccc2)c(N)n(Cc2ccccc2)c1=O
 : 105	101	2	-28
CC(=O)NC1=NN(C(C)=O)C(c2ccco2)S1 (configuration not stated)
 : 105	103	5	-11
NNC(=O)CNC(=O)c1cccc2ccccc12
 : 100	104	64	-4
CCCCOc1nc2ccccc2nc1C(C#N)C(=O)OCC (configuration not stated)
 : 100	102	-3	-19
CCC1(C)NC(=O)N(NC(=O)Cn2cnc3c2c(=O)n(C)c(=O)n3C)C1=O (configuration not stated)
 : 102	100	-7	-14
NS(=O)(=O)c1ccc(CNC(=O)c2ccncc2)cc1
 : 100	105	-3	-4

# New compounds follow.
# Each structure is followed by: Polio RdRp inh	Polio RdRp inh intensity	Mtb MbtI inh	MenB inh
CC(=O)NC(C)c1ccccc1 (configuration not stated)
 : 105	105	-9	14
CCn1c(COc2ccccc2OC)nnc1SCC(=O)c1c(C)n(C)c2ccccc12
 : 100	101	4	11
CCc1cccc(N2C(=O)Nc3ccccc3N2O)c1
 : 102	104	-7	6
CC(c1ccco1)N(C(=O)C1CC1)c1ccccn1 (configuration not stated)
 : 103	97	-10	x
Cc1ccc(CN(C)CC(=O)Nc2c(C(C)C)cccc2C(C)C)o1
 : 97	97	9	-8
O=C(CNc1ccc(F)cc1F)N1CCN(S(=O)(=O)c2ccccc2)CC1
 : 107	103	-9	-28
CCCS(=O)(=O)c1c(S(=O)(=O)CCC)c2cc(CC)ccn2c1C(=O)c1ccc(F)cc1
 : 98	101	x	-33
CCC(CO)NCC(O)c1ccccc1 (configuration not stated)
 : 105	107	-3	-11
NC(=O)COc1cccc(-n2cnnn2)c1
 : 99	102	11	-3
C=CCC(C)(NCc1ccccc1)c1ccco1 (configuration not stated)
 : 102	101	0	31
O=C(OCC1CC1)c1cc2ccccc2o1
 : x	x	21	-11
O=C(/C=C/c1ccccc1)OCC(=O)c1ccc(-n2nncc2-c2ccco2)cc1
 : 102	99	-4	-46
CC(C)(C)N=c1scc(-c2ccccc2)n1-c1ccccc1
 : 104	101	-3	x
O=C(CCc1ccccc1)N/N=C/c1ccco1
 : 107	99	15	-15
O=C1CSc2ccc(C(=O)N3CCN(c4cccc(C(F)(F)F)c4)CC3)cc2N1
 : 100	101	-2	-14
CN(C)P1(=S)C2=C(N3CCCCC3)CC(C)(C)CC2=NN1c1ccccc1 (configuration not stated)
 : 104	103	12	6
Cn1cnnc1SCc1ccc(C(=O)n2ncc(C#N)c2N)cc1
 : 88*	91*	-10	-4
CCCc1ccc(-c2nc(NC(=O)CSCC(=O)Nc3cc(C)on3)sc2C)cc1
 : 101	108	-2	-15
CCSC1=N/C(=C\c2ccc(C)s2)C(=O)S1
 : 100	104	3	-58
Ic1cccc(CSc2nnnn2-c2ccc3c(c2)OCO3)c1
 : 99	101	-6	-27
CC(C)NC(=O)c1cccc2cccc(Sc3ccccc3)c12
 : 105	111	-9	-5
O=C(CN1CCOCC1)Nc1c(-c2ccccc2)c2cc(Br)ccc2[nH]c1=O
 : 100	104	15	27
CCCCN(C)C(=O)c1cc2cc3ccc(OC)cc3nc2o1
 : 99	105	102	-9
COc1cccc(C(=O)N2CCN(C(=O)c3ccccc3)CC2)c1
 : 100	102	-3	0
O=C(NC(c1ccccc1)c1ccccc1)C1CC1
 : 101	102	-6	-5
CNC(=O)C(C)n1nc(C)c2c(C)n(-c3ccccc3)nc2c1=O (configuration not stated)
 : 103	103	-5	11
CC(C)CNc1ncnc2c1sc1nc(C(C)C)c3c(c12)CC(C)(C)OC3
 : 102	109	-8	-1
CCCN(CCC)S(=O)(=O)c1c[nH]c(C(=O)OC)c1
 : 105	105	-14	-3
CC(=O)Nc1nc(SCc2ccccn2)[nH]c(=O)c1NC(=O)c1ccccc1
 : 100	105	108	1
CC(=NCCSCc1nc[nH]c1C)c1c(C)[nH]n(-c2nc3ccccc3s2)c1=O
 : 103	104	3	-12
COCCn1c(-c2ccc(C(C)(C)C)cc2)n[nH]c1=S
 : 102	104	57	-29
Cc1cc(Nc2ccccc2)nn1C(=O)c1ccccc1
 : 103	107	-12	x
CN(CC(=O)Nc1nnc(C2CC2)s1)S(=O)(=O)c1ccc(Cl)cc1
 : 104	99	11	7
COc1ccc(C2=C(N3CCN(c4ccccn4)CC3)c3ccccc3C2=O)cc1
 : 102	97	-1	-25
CC(=O)NCCn1c(SCC(=O)NCc2ccccc2)nc2ccccc2c1=O
 : 101	101	-1	1

# By substructure: those above with a furan ring, fused or not (13)
# Each structure is followed by: Polio RdRp inh	Polio RdRp inh intensity	Mtb MbtI inh	MenB inh
S=C(NCCSCc1ccco1)NC1CCCCC1
 : 101	98	-1	-23
Cc1oc2c(F)c(F)c(F)c(F)c2c1C(=O)O
 : 102	91	-5	-7
COC(=O)c1cc(CN2CCNC(=O)C2)oc1C
 : 105	107	-5	-4
COc1ccc2oc(C(=O)OCC(=O)Nc3ccccc3SCC#N)c(C)c2c1
 : 65	231	30	-29
Cc1ccc(S(=O)(=O)N2CCCC(NC(=O)NCc3ccco3)C2)cc1 (configuration not stated)
 : 103	102	-8	-22
CC(=O)NC1=NN(C(C)=O)C(c2ccco2)S1 (configuration not stated)
 : 105	103	5	-11
CC(c1ccco1)N(C(=O)C1CC1)c1ccccn1 (configuration not stated)
 : 103	97	-10	x
Cc1ccc(CN(C)CC(=O)Nc2c(C(C)C)cccc2C(C)C)o1
 : 97	97	9	-8
C=CCC(C)(NCc1ccccc1)c1ccco1 (configuration not stated)
 : 102	101	0	31
O=C(OCC1CC1)c1cc2ccccc2o1
 : x	x	21	-11
O=C(/C=C/c1ccccc1)OCC(=O)c1ccc(-n2nncc2-c2ccco2)cc1
 : 102	99	-4	-46
O=C(CCc1ccccc1)N/N=C/c1ccco1
 : 107	99	15	-15
CCCCN(C)C(=O)c1cc2cc3ccc(OC)cc3nc2o1
 : 99	105	102	-9
